StopGo reporter: High Throughput Screening for Foot and Mouth Disease Virus Antivirals. AID 1159524, 2015. Potency, µM (doses to about 57.9 µM), without a hit: top-dose signal change, negative = less light. actives 1.2% (n = 410,000). human cells with a luciferase reporter of 2A StopGo recoding; control for the full effect not named in the record; active = well fitted falling curve with a large enough effect; inconclusive = small, poorly fitted or top-dose-only effect; inactive = no such curve, though single readings can be large or run the other way; tested in HEK293T cells; also: % is scaled to controls: 0 for no effect and ±100 for the full control effect; nearly all actives have a fitted effect of over 45% in size; luciferase light after 4 h
Cruzain noTriton: qHTS Assay for Promiscuous and Specific Inhibitors of Cruzain (without detergent); Cruzipain (Trypanosoma cruzi), P25779; purified cruzain, Z-FR-AMC fluorescence, no detergent; Potency, µM, for the others: max response, negative = inhibition, hits mostly inhibitors; actives 2.3% (n = 200,000); active = well fitted curve in the direction sought with a large enough effect; inconclusive = small, poorly fitted or top-dose-only effect, or another doubt; inactive = no such curve, though single readings can be large; an effect the other way counts as inactive or inconclusive;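 also: plate controls were enzyme without inhibitor for no effect and buffer without enzyme for full effect; nearly all actives have a fitted effect of over 40% in size; top concentration of the series not given in the record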
Target sequence (P25779 123-467 limits assumed): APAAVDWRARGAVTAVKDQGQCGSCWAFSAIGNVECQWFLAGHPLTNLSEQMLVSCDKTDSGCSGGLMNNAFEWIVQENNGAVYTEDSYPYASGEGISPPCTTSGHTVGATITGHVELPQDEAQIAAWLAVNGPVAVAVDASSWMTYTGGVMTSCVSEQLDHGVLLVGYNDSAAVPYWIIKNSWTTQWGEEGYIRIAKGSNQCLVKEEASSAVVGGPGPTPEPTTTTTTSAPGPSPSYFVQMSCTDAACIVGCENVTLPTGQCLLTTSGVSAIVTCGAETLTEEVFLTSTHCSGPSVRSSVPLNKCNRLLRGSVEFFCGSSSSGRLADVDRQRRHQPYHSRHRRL
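Detergent-free condition (0.00005% Triton X-100) in acetate buffer pH 5.5 with DTT. 1.5 nM enzyme and compound were pre-mixed 15 min, then 2 uM Z-FR-AMC substrate added; reaction progress from fluorescence change between first and third reads (60 s).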
Marburg entry inh: qHTS for inhibitors of binding or entry into cells for Marburg Virus. Marburg virus pseudotyped entry inhibition, cell reporter; control for the full effect not named in the record; about a third of the inactives were read at about 46 µM. Potency, µM (doses to about 37.8 µM), without a hit: top-dose activity change, negative = inhibition, hits mostly inhibitors. actives 1.8% (n = 300,000); active = well fitted inhibition curve with a large enough effect; inconclusive = small, poorly fitted or top-dose-only effect, or effect the other way; inactive = flat fitted curve, though single readings scatter; tested in HEK293 cells; about a fifth of its hits are not listed in these tables; also: % is scaled to controls: 0 for no effect and ±100 for the full control effect; luciferase read-out
SARS PLpro yeast: qHTS of Yeast-based Assay for SARS-CoV PLP; S. cerevisiae expressing SARS-CoV PLpro, growth rescue; control for the full effect not named in the record; actives 0.19% (n = 330,000); Potency, µM (titrated, usually from 32.9 µM), for inactives: top-dose activity, positive = growth rescue; also: 0% is about no effect; nearly all actives have a fitted effect of over 55% in size; growth read by luminescence after 48 h
Cruzain Triton: qHTS Assay for Promiscuous and Specific Inhibitors of Cruzain (with detergent) | Potency, µM, for inactives: max response, negative = inhibition, most hits filed as inhibitors | Cruzipain (Trypanosoma cruzi), P25779 | purified cruzain, Z-FR-AMC fluorescence, 0.01% Triton | actives 0.43% (n = 200,000); active = well fitted curve in the direction sought with a large enough effect; inconclusive = small, poorly fitted or top-dose-only effect, or another doubt; inactive = no such curve, though single readings can be large; an effect the other way counts as inactive or inconclusive;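 also: plate controls were neutral wells for no effect and buffer without enzyme for full effect; nearly all actives have a fitted effect of over 40% in size; top concentration of the series not given in the record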
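Z-FR-AMC hydrolysis (2 uM substrate) by cruzain (1.5 nM) monitored kinetically at ex 360/em 450 nm after 15 min room-temperature compound exposure; 0.01% Triton X-100, pH 5.5, 5 mM DTT.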
NS1 function inh: qHTS Assay for Inhibitors of Influenza NS1 Protein Function; S. cerevisiae slowed by influenza A NS1, growth recovery by OD600; Potency, µM (series often up to 46.1 µM), without a hit: at the top dose activity, positive = more growth; actives 0.4% (n = 270,000); also: actives are rising curves; nearly all actives have a fitted effect of over 50% in size
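Growth recovery, yeast-based: influenza A NS1 expressed in S. cerevisiae causes slow growth, and suppressors are detected by OD600. The parent strain without NS1 is used as positive control.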
RE007 growth inh: qHTS Assay for Inhibitors of the HIV-1 protein Vpr; S. pombe RE007 Vpr strain, BacTiter-Glo ATP luminescence, 24 h; control for the full effect not named in the record; Potency, µM (titrated, usually from 92.2 µM), without a hit: at the top dose activity change, negative = less growth; actives 0.21% (n = 360,000); AID 651644, 2012; active = well fitted falling curve with a large enough effect; inconclusive = small, poorly fitted or top-dose-only effect; inactive = no such curve, though single readings can be large or run the other way;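 also: % is scaled to controls: 0 for no effect and ±100 for the full control effect; nearly all actives have a fitted effect of over 50% in size; the assay follows cell death caused by Vpr and the record does not say whether a fall means rescue or toxicity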
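Fission yeast RE007 carrying one integrated HIV-1 vpr copy, seeded at OD 0.01 in PMG+AL medium with 23 nL pinned compound. Grown 24 h at 30 degrees; viability read by BacTiter-Glo luminescence after 5 min.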
LASV entry inh: qHTS for Inhibitors of binding or entry into cells for Lassa Virus | Lassa virus pseudotype entry inhibition, cell reporter; control for the full effect not named in the record | Potency, µM (series often up to 37.9 µM), for inactives: top-dose activity change, negative = inhibition, usual class: inhibitors | actives 1.2% (n = 300,000) | AID 540256, 2011; active means well fitted inhibition curve with a large enough effect; inconclusive means small, poorly fitted or top-dose-only effect, or effect the other way; inactive means flat fitted curve, though single readings scatter; tested in HEK293 cells; also: % is scaled to controls: 0 for no effect and ±100 for the full control effect; nearly all actives have a fitted effect of over 50% in size; luciferase read-out
An asterisk follows results filed as active; ? = inconclusive; · = no result given; & = joins results of further samples; [ ] = remark or other dose. Unless noted, calls follow the shape of the dose curve; as a rule, active means well fitted rising curve with a large enough effect; inconclusive means small, poorly fitted or top-dose-only effect; inactive means no such curve, though single readings can be large or run the other way. Potency is read from the fitted curve at half-maximal effect.

SMILES	StopGo reporter	Cruzain noTriton	Marburg entry inh	SARS PLpro yeast	Cruzain Triton	NS1 function inh	RE007 growth inh	LASV entry inh
CCCc1cc(C(=O)N/N=C/c2cccn2C)cs1	102%[activator]	·	?	0%	·	-9%	-2%	9%
Cc1ccc(NC(=O)CN(C)S(=O)(=O)c2cccs2)cc1C	·	4%	20%	?	9.2%	12%	-1%	11%
COc1ccc(Cl)cc1NC(=O)CN(C1CCCCC1)S(C)(=O)=O	?	10%	-12%	-1%	-2.2%	-15%	-11%	12%
O=C(COC(=O)c1cccs1)NCc1ccccc1	14%	-5%	17%	-10%	0.3%	-19%	-12%	16%
Cc1ccccc1Nc1nc(N)nc(COC(=O)CCC(=O)c2ccc(F)cc2)n1	-9%	·	?	2%	·	·	1%	-17%
CSCC[C@H](NC(=O)OC(C)(C)C)C(=O)N/N=C/c1c(C)[nH]c(=O)[nH]c1=O	-18%	7%	-21%	2%	3.2%	7%	-9%	13%
C=C(C)CSc1nc2sc3c(c2c(=O)n1-c1ccc(OC)cc1)CCN(C)C3	-5%	·	·	-1%	·	1%	-4%	·
O=C1CC(C(=O)O)S/C(=N\N=C\c2ccc(Br)cc2)N1 (centres undefined)	-16%	·	·	2%	·	-3%	1%	·
CC(C)(C)c1cc(NC(=O)c2cccs2)no1	5%	·	?	·	·	·	-27%	?
Cc1ccc(-c2noc(CNC(=O)c3ccccc3)n2)cc1	7%	-28%	29%[46.1 µM]	·	-2.9%	·	·	18%[46.1 µM]
COc1ccccc1N1C(=O)CC(N2CCN(c3ccc([N+](=O)[O-])cc3)CC2)C1=O (centres undefined)	?	·	·	-2%	·	-21%	5%	·
Cc1ccc(C)c(OCCC(=O)NNC(=O)Cn2nc(C)cc2C)c1	-16%	·	0%	7%	·	·	7%	-2%
COc1ccc(NS(=O)(=O)c2cc(NC(=O)Cc3cccs3)ccc2C)cc1	5%	6%	?	-1%	-9.5%	-13%	10%	1.8µM*
Cc1ccc(/C=N/N2CCN(c3ccccn3)CC2)o1	61%[activator]	·	·	-1%	·	1%	?	·
COCCNC(=O)C(c1ccc(OC)cc1)N(C(=O)Cn1nnc2ccccc21)c1cccnc1 (centres undefined)	3%	·	12%[46.1 µM]	0%	·	8%	35%	-21%
O=C(CNC(=O)c1ccco1)Nc1ccc(F)cc1	27%	·	-1%	-1%	·	3%	-1%	?
CC(=O)c1cccc(NC(=O)c2cnn3ccccc23)c1	47%[activator]	-6%	·	-5%	2.8%	-21%	-5%	·
Cc1nc(CN2CCN(C(=O)NC3(c4ccccc4)CC3)CC2)cs1	-18%	-6%	3%	1%	4.4%	2%	16%	2%
N#Cc1nc(COc2ccccc2F)oc1NCCc1ccccc1	9%	-4%	-15%	-9%	2.9%	-113%	-14%	1%
COc1ccc(CCNC(=S)Nc2ccc(C)cc2C)cc1	16%	-10%	22%	-17%	-0.1%	-33%	-5%	-1%
Cn1c(=O)oc2cc(S(=O)(=O)N3CCCC(C(=O)N4CCN(c5cccc(Cl)c5)CC4)C3)ccc21 (centres undefined)	25µM*	-1%	-16%[46.1 µM]	·	-1.4%	·	·	3%[46.1 µM]
C#CCOCCOCCOCCNc1nc(N2CCN(C(=O)C(CCC(=O)O)n3cc(C(N)CC(C)C)nn3)CC2)nc(N2CCN(C(=O)C(Cc3cc4ccccc4[nH]3)n3cc(C(N)Cc4ccc(O)cc4)nn3)CC2)n1 (centres undefined)	-14%	·	·	-2%	·	1%	-4%	·
CN(C)/C=C1\C(=O)N(c2ccc([N+](=O)[O-])cc2)N=C1c1ccccc1	8%	-30%	17%	-19%	-12%	-13%	-2%	?
Cc1cc2c(cc(C(=O)OCC(=O)NCc3cccs3)n2C(C)C)o1	·	-12%	?	-8%	-8.2%	-65%	6%	9.2µM*
CCCNC(=O)C1CCC(Cn2c(=O)c3sccc3n(Cc3ccccc3C)c2=O)CC1 (centres undefined)	-17%	4%	·	·	-2.5%	·	·	3%[46.1 µM]
CC(=O)c1ccc(NC(=O)/C=C/c2ccc(C)o2)cc1	29%	-11%	?	·	-16%	·	·	10%[46.1 µM]
O=C(OCC(=O)N1CCOCC1)c1c(Cl)ccc(Cl)c1Cl	2%	·	·	7%	·	-5%	2%	·
Nc1nonc1-n1nnc(C(=O)N/N=C/c2ccccc2Cl)c1COc1ccc(F)cc1	-5%	·	-13%	-1%	·	2%	13%	-2%
CCOc1cc(-c2ccc(OC(=O)c3ccc(OC)cc3)c(OC)c2)cc(=O)c2c(C)oc(C)c12	-19%	3%	-17%[46.1 µM]	·	-8.3%	·	·	-29%[46.1 µM]
COc1ccc(-c2oc3ncn4nc(COc5ccc(C)cc5)nc4c3c2-c2ccc(OC)cc2)cc1	-14%	7%	·	·	1.8%	·	·	-8%[46.1 µM]
Cc1ccc(NC(=O)CN(C)C(=O)CNC(=O)c2cccs2)cc1	-3%	·	8%	2%	·	·	-1%	6%
Cc1ccc(S(=O)(=O)N2CCN(C(=O)c3c(-c4ccccc4)noc3C)CC2)c(C)c1	-7%	·	?	-1%	·	22%	0%	-30%[46.1 µM]
COc1ccc(-c2cc(=O)oc3c(C)c(OCC(=O)NCC4CCC(C(=O)O)CC4)ccc23)cc1 (centres undefined)	-24%	·	·	1%	·	20%	-14%	·
CC1CC(C)CN(CCC(=O)Nc2ccc3c(c2)CCC3)C1 (centres undefined)	0%	·	7.3µM*	0%	·	2%	-6%	?
Cc1ccc(OCCn2nc3ccccc3n2)c(C)c1	7%	0%	-2%	-3%	1.8%	-21%	-12%	-24%
O=C(NCCCNC(=O)c1ccccc1Cl)c1cnccn1	0%	·	-8%[46.1 µM]	0%	·	-2%	-5%	11%[46.1 µM]
CCCC(=O)Nc1nnc(/C=C/c2ccc(OC)cc2)s1	26%	·	6%[46.1 µM]	-1%	·	1%	-3%	1%
CCC1CCCCN1CCCNC(=O)c1ccc2c(=O)n(CCOC)c(=O)[nH]c2c1 (centres undefined)	-10%	·	19%[46.1 µM]	7%	·	4%	-4%	15%[46.1 µM]
CCCCNC(=O)Cn1cnc2ccc(S(=O)(=O)N3CCC(C)CC3)cc2c1=O	-8%	·	4%[46.1 µM]	0%	·	·	42%	-2%
Cc1cc(C(=O)CN2C(=O)NC3(CCCCC3)C2=O)c(C)n1Cc1ccco1	10%	·	?	0%	·	·	-6%	?
CCCCCCCCC(=O)N/N=C/c1cccc(Br)c1	·	-3%	-1%	2%	-9.7%	-10%	2%	9%
CC(=O)Nc1ccc(S(=O)(=O)N2CCC(c3ccncc3)CC2)cc1	?	-5%	·	·	2.7%	·	·	-7%[46.1 µM]
COc1ccc(CCN(C)C(=O)c2c(C)nn(-c3ccccc3)c2C)cc1OC	-10%	·	10%	0%	·	9%	2%	8%
Fc1ccc(Nc2nc(-c3ccncc3)nc3ccccc23)cc1F	?	9%	7.1µM*	-14%	-8.0%	1%	-7%	6%[46.1 µM]
CCOC(=O)COc1ncn(-c2ccccc2)n1	-15%	-3%	8%	1%	-5.4%	-10%	-18%	0%
CC1CCN(S(=O)(=O)c2cn(CC(=O)Nc3cccc(C#N)c3)cn2)CC1	-8%	·	?	20%	·	9%	-8%	?
COc1ccc(C(=O)NN(C)c2nc(C(F)(F)F)nc3ccccc23)cc1	-14%	·	?	-1%	·	·	-14%	·
Cc1[nH]c2ccccc2c1/C=N/NC(=O)CNC(=O)Cc1ccccc1	-8%	·	0%[46.1 µM]	0%	·	-14%	-1%	-11%[46.1 µM]
COc1ccc(OC)c(C(C)NC(=O)Nc2cccc(C(C)=O)c2)c1 (centres undefined)	15%	·	·	0%	·	2%	-8%	·
COc1cc(Cl)c(C)cc1NC(=O)COC(=O)c1cc[n+]([O-])cc1	-9%	·	2%[46.1 µM]	-1%	·	·	19%	-20%
COc1ccc(-c2nc(CN3C(=O)CN=C(c4ccccc4)c4ccccc43)c(C)o2)cc1OC	-5%	?	-11%[46.1 µM]	·	-3.4%	·	·	-15%[46.1 µM]
CC1CC(C(F)F)n2nc(C(=O)Nc3sc4c(c3C#N)CCC(C(C)(C)C)C4)nc2N1 (centres undefined)	-19%	8%	-1%[46.1 µM]	-9%	-1.1%	8%	4%	10%
Cc1cc(=O)oc2cc(OCC(=O)N3CCN(C(=O)C4COc5ccccc5O4)CC3)c(Cl)cc12 (centres undefined)	-24%	·	·	3%	·	14%	5%	·
O=C(NCc1cccs1)c1ccc(CSc2nc3ccncc3n2Cc2ccccc2)cc1	24%	-4%	?	·	-3.3%	·	·	-25%[46.1 µM]
CCC(C(=O)Nc1cc(C)cc(C)n1)c1ccccc1 (centres undefined)	?	·	?	·	·	·	-25%	22%
CCc1cccc(NC(=O)Cn2c(-c3ccc(F)cc3)cc(C(C)=O)c2C)c1	-11%	-4%	·	·	-3.5%	·	·	-12%[46.1 µM]
CCOC(=O)c1c(C)nsc1NC(=O)C1CCCCC1	4%	·	5%[46.1 µM]	1%	·	-18%	-25%	-7%[46.1 µM]
COc1ccccc1CCNC(=O)COc1cccc2c1OC(C)(C)C2	-8%	·	-14%[46.1 µM]	-12%	·	·	-7%	0%
CCN(C(=O)CN1C(=O)COc2ccc(S(=O)(=O)N3CCOCC3)cc21)c1ccc(OC)cc1	2%&-3%	?	·	-1%	-1.9%	-5%	2%	3%[46.1 µM]
COC(=O)Cc1ccc(NC(=O)c2ccc(C)c(C)c2)cc1	7%	?	-18%	-7%	-1.9%	-13%	-10%[3.69 µM]	-7%
Cc1cc(C)nc(NS(=O)(=O)c2ccc(NC(=O)Nc3ccccc3F)cc2)n1	102%[activator]	·	·	0%	·	-3%	-3%	·
O=S(=O)(NCC(c1ccc2c(c1)OCO2)N1CCOCC1)c1ccc(F)cc1 (centres undefined)	-5%	·	1%[46.1 µM]	6%	·	·	-9%	0%
COc1cc(OC)cc(C(=O)Nc2ccccc2-c2nnn(CC(N)=O)n2)c1	-8%	·	?	0%	·	·	-5%	-10%

Source: PubChem (National Center for Advancing Translational Sciences (NCATS))
